Vaccinia mCherry – vaccinia inhibition (mCherry reporter). Vaccinia virus mCherry reporter infection, fluorescence; about a quarter of the inactives have no number. Potency, µM (top dose mostly 36.5 µM), for inactives: at the highest dose activity change, negative = inhibition, actives largely listed as inhibitors. 0.63% of 310,000 active; active = well fitted inhibition curve with a large enough effect; inconclusive = small, poorly fitted or top-dose-only effect; inactive = no such curve, though single readings can be large or run the other way; tested in A549 cells; also: nearly all actives have a fitted effect of over 35% in size; inactives centre near -10
Vaccinia Venus – vaccinia inhibition (Venus reporter); Vaccinia virus Venus reporter expression, fluorescence; Potency, µM (highest dose often 36.5 µM), without a hit: at the top dose activity change, negative = inhibition, actives largely listed as inhibitors; 0.46% of 330,000 active; active means well fitted inhibition curve with a large enough effect; inconclusive means small, poorly fitted or top-dose-only effect; inactive means no such curve, though single readings can be large or run the other way; tested in A549 cells; also: nearly all actives have a fitted effect of over 30% in size; inactives centre near -10
* hit, by the source's call; i = inactive; ? = inconclusive; · = not tested or not shown; [ ] = remark or other dose. % is scaled to controls: 0 for no effect and ±100 for the full control effect; potency is read from the fitted curve at half-maximal effect.

SMILES	Vaccinia mCherry	Vaccinia Venus
COCC(C)NC(=O)c1ccc2nc(-c3ccccc3)c(-c3ccccc3)nc2c1 (stereo not drawn)	-22%	-15%
CCOC1(C)OCC(=O)[C@]2(CCC3C4CCC5=CC(=O)C=CC5(C)C4C(=O)CC32C)O1 (stereo partly drawn)	-16%	-15%
COc1ccc(NC2CCCN(C(=O)C3=NNC(=O)CC3)C2)cc1 (stereo not drawn)	-8%	1%
COC(=O)[C@]12CCCCC=C1N(Cc1ccccc1)C(=O)[C@H](CC(=O)N1CCOCC1)C2	-4%	-4%
CC1CCC2(CC1)NC(=O)N(CC(=O)NC1(C#N)CCCCC1)C2=O (stereo not drawn)	-14%	-3%
CCN(C(=O)Cc1ccccc1OC)c1nnc(-c2ccncc2)s1	-18%	-10%
Clc1ccc2c(c1)C1CC2CCN1Cc1ccccc1 (stereo not drawn)	i	-9%
O=C(NCc1ccc(F)cc1)C1CCC(CNS(=O)(=O)c2cccs2)CC1 (stereo not drawn)	-20%	-23%
Cc1ccc(-n2c(C)cc(/C=C3/C(=O)NC(=O)N(Cc4ccco4)C3=O)c2C)cc1	-8%	-7%
Cc1cc(C)n(Cc2ccc(C(=O)NCCC3=CCCCC3)o2)n1	·	?
CCOC(=O)C1=C(C)N(C)C(=O)NC1c1cccc([N+](=O)[O-])c1 (stereo not drawn)	i	-4%
O=C(COc1ccccc1)N1CCN(CCN2C(=O)c3cccc4cccc(c34)C2=O)CC1	-7%	-15%

(listing goes on)
SMILES	Vaccinia mCherry	Vaccinia Venus
COc1ccccc1-c1nc(-c2ccc(Br)cc2)no1	i	-5%
C[C@@H]1CN([C@H](C)CO)S(=O)(=O)c2ccc(C#Cc3ccccc3)cc2O[C@@H]1CN(C)C(=O)CN(C)C	-7%	-20%
CC(C)CC(C(=O)OCC(=O)N1CCN(c2ccccc2)CC1)N1C(=O)c2ccccc2C1=O (stereo not drawn)	i	-11%
CCN(CCO)C(=O)c1ccc2nc(Cc3cccc(Cl)c3)oc2c1	?	-2%
CC(=O)N/N=C(\C)c1ccc2c(c1)OCCO2	i	0%
S=C(Nc1ccccc1Cl)N(CCCN1CCOCC1)Cc1ccco1	i	-19%
COCC1CCN(C(=O)c2cc(COc3ccc(OC)cc3Cl)on2)C1 (stereo not drawn)	i	-14%
O=C(NC(=S)N1CCCC1)c1ccc(Cl)cc1	-13%	-15%
Cc1ccc(Nc2c(-c3ccco3)nc3ccccn23)cc1	-10%	-16%
CC(=O)N1CCc2c(sc(NC(=O)CCS(=O)(=O)c3ccc(C)cc3)c2C#N)C1	?	?
CCOC(=O)C1C(=O)CC(C)(O)C(C(=O)OCC)C1c1ccc(F)cc1 (stereo not drawn)	-15%	-5%
Cc1ccc(Cl)cc1NC(=O)C1CCCN1S(=O)(=O)c1ccc(-c2ccc(=O)[nH]n2)s1 (stereo not drawn)	i	-21%

Rewritten field by field: entries from further up.
> CCOC(=O)C1C(=O)CC(C)(O)C(C(=O)OCC)C1c1ccc(F)cc1 (stereo not drawn)
  Vaccinia mCherry: -15% | Vaccinia Venus: -5%

> C[C@@H]1CN([C@H](C)CO)S(=O)(=O)c2ccc(C#Cc3ccccc3)cc2O[C@@H]1CN(C)C(=O)CN(C)C
  Vaccinia mCherry: -7% | Vaccinia Venus: -20%

> CC(=O)N/N=C(\C)c1ccc2c(c1)OCCO2
  Vaccinia mCherry: i | Vaccinia Venus: 0%

> COCC1CCN(C(=O)c2cc(COc3ccc(OC)cc3Cl)on2)C1 (stereo not drawn)
  Vaccinia mCherry: i | Vaccinia Venus: -14%

New compounds follow
SMILES	Vaccinia mCherry	Vaccinia Venus
CC1N(O)C2CCCCCC2N1O (stereo not drawn)	·	?
Cn1c(=O)c2c(nc(NCc3ccco3)n2C/C=C/c2ccccc2)n(C)c1=O	·	?
Cc1cc2c(nc1C)CCCN2C[C@@H](C)O/N=C1/[C@H]2CCn3c(=O)n(-c4ccccc4)c(=O)n3[C@H]2[C@H](O)[C@@H]2O[C@H]12	-25%	-25%
CCS(=O)c1ccccc1C(=O)OC(C)C(=O)Nc1ccc(S(=O)(=O)N2CCCC2)cc1 (stereo not drawn)	-7%	-10%
O=C(CSc1nc(O)cc(=O)[nH]1)N1CCOCC1	-15%	5%
O=C(Cn1ccc([N+](=O)[O-])n1)Nc1nccs1	-11%	0%
COc1ccc(CCNC(=S)N2CCC(C(N)=O)CC2)cc1	-14%	-9%
Cn1c(CNC(=O)c2ccccc2F)nnc1SCC(=O)c1ccccc1	i	-8%
OCCN(CC#CCC(O)(c1ccccc1)C1CCCC1)CCO (stereo not drawn)	-14%	-5%
Cc1ccc(C)c(N2CCN(C(=O)c3cccn4c(=O)c5ccccc5nc34)CC2)c1	?	?
O=C(CSc1nnc(-c2ccccc2)c(-c2ccccc2)n1)Nc1ccc(Br)cn1	-8%	-25%
COc1c(Cl)cc(C(=O)O)cc1Cl	-13%	-6%

Profiles from above. Order of screens: Vaccinia mCherry | Vaccinia Venus
CCOC1(C)OCC(=O)[C@]2(CCC3C4CCC5=CC(=O)C=CC5(C)C4C(=O)CC32C)O1 (stereo partly drawn) is listed as -16% | -15%
Cn1c(CNC(=O)c2ccccc2F)nnc1SCC(=O)c1ccccc1 is listed as i | -8%
Cn1c(=O)c2c(nc(NCc3ccco3)n2C/C=C/c2ccccc2)n(C)c1=O is listed as · | ?

Additional results follow:
SMILES	Vaccinia mCherry	Vaccinia Venus
O=C(COc1ncnc2c(Cl)cc(Cl)cc12)NCCC1=CCCCC1	·	-8%
CCCc1nn(C)c(C(=O)Nc2cccc3ccccc23)c1Cl	-5%	-17%
O=C1C=C(c2ccc3c(c2)oc2ccccc23)C[C@@H](c2ccc3c(c2)OCO3)C1	-14%	-14%
Cc1ccc([C@H]2N[C@]3(CCCN(Cc4ccc(F)cc4)C3=O)[C@H]3C(=O)N(Cc4ccccc4)C(=O)[C@@H]23)cc1	?	-22%
Cc1c(Cl)cccc1NC(=S)/C(=C(\[O-])c1ccc(Cl)s1)[n+]1ccccc1	-22%	-19%
O=c1cc(C(F)(F)F)c2cc3c4c(c2o1)CCCN4CCC3	-19%	84%[activator]
Cc1nc(SCC(=O)Nc2ccc3c(c2)OCO3)c(C#N)c2c1CCCC2	·	-18%
Cc1cc(NC(=O)CSc2nccn2-c2cccc(C)c2C)no1	-13%	-16%
COc1ccccc1CNC(=O)CCn1c(=O)c2cccn2c2cccnc21	-2%	0%
Cc1ccc(CN(C)C(=O)CCc2nc3sc4c(c3c(=O)[nH]2)CCCC4)o1	i	-1%
CCN(CC)S(=O)(=O)c1ccc(C)c(NC(=O)CN2C(=O)NC3(CCCC3)C2=O)c1	i	-6%
C=CCN1CCc2cccc3c2C1Cc1ccc(O)c(O)c1-3 (stereo not drawn)	-5%	-20%

Continued:
SMILES	Vaccinia mCherry	Vaccinia Venus
NS(=O)(=O)c1ccc(CNC(=O)Cc2cccs2)cc1	-2%	-17%
COc1ccc2nc(SC(C)C(=O)NC3CCCCC3)[nH]c2c1 (stereo not drawn)	i	3%
COc1cccc(C(=O)N2CCN(Cc3cc(Br)ccc3OC)CC2)c1	-19%	-16%
O=C(NCc1cn2ccsc2n1)Nc1ccc(Cl)cc1	i	0%
Cc1ccc(S(=O)(=O)N(CCC(=O)NCc2ccc(S(N)(=O)=O)cc2)c2ccccc2)cc1	i	-7%
CC1(C)C(=O)Nc2ccccc2N1C(=O)COC(=O)c1cc(S(C)(=O)=O)ccc1Cl	i	-13%
N/C(CS(=O)(=O)c1ccccc1)=N\OC(=O)c1ccc(F)cc1	-15%	-12%
CCC(=NNc1ccc([N+](=O)[O-])cc1[N+](=O)[O-])c1ccccc1	20%	7%
CC1(C)Cc2c(sc3[nH]c(=S)[nH]c(=O)c23)CO1	-17%	-7%
Cc1ccc(CN2C(=O)CN(C3CCC(C)CC3)C(=O)C2c2ccc(F)cc2)cc1 (stereo not drawn)	2%	2%
O=C(OCc1nnc(-c2ccccc2)o1)c1ccc2c(c1)OCCO2	-9%	2%
CSCCC(NS(=O)(=O)c1ccccc1F)C(=O)NCC(c1ccc(F)cc1)N1CCOCC1 (stereo not drawn)	-11%	-4%

Additional structures follow.
SMILES	Vaccinia mCherry	Vaccinia Venus
COc1nc(-c2ccccc2)nc(-c2ccccc2)c1C	-8%[7.34 µM]	-20%[7.34 µM]
COc1ccc([C@H]2CC(=O)C=C(c3cc(C=O)ccc3OC)C2)cc1	-15%	?
COC(=O)c1ccc(S(=O)(=O)N2CCCC2)o1	·	-4%
O=S(=O)(c1cc(Cl)ccc1Cl)n1nnc2ccccc21	-21%	-5%
CCOc1ccc(-c2[nH]ncc2Oc2cccc(OC)c2)c(O)c1	?	?
CC1(C)CC(=O)C=C(c2ccc3c(c2)OCO3)C1	i	-9%
CCOC(=O)C(NC(=O)C1CCCN1C(=O)OCc1ccccc1)C(=O)OCC (stereo not drawn)	·	-28%
CCCc1ccc(C(=O)NNc2ccc(F)cc2)cc1	-16%	-14%
CCc1ccc(C2c3c(oc4cc(C)c(C)cc4c3=O)C(=O)N2c2nc(C)c(C(=O)OC)s2)cc1 (stereo not drawn)	-8%	-2%
Cc1cn2c(=O)cc(COC(=O)COc3ccc(C)c(C)c3)nc2s1	-6%	-6%
COc1ccc([C@@H]2[C@@H]3C(=O)N(C(C)(C)C)C(=O)[C@@H]3[C@]3(Cc4ccccc4)C(=O)N(c4ccc(Br)cc4)C(=O)N23)cc1	-13%	-9%
Cc1ccc2c(c1)sc1nc(=O)n(-c3cccc(Cl)c3)c(=O)n12	-11%	3%

(listing goes on)
SMILES	Vaccinia mCherry	Vaccinia Venus
COC(=O)CN1C(=O)CSc2ccc(S(=O)(=O)Nc3cccc(C)c3)cc21	-3%	1%
CCCC12CN3CCN(CC(C3)/C1=N\NC(=O)c1ccccc1N)C2	-14%	2%
COC(=O)CCC(=O)NC(=S)Nc1ccc(S(=O)(=O)N2CCCC2)cc1	0%	-11%
C=CCSc1nnc(-c2cc(Br)ccc2N)c(=O)[nH]1	-15%	-6%
Cc1ccc(Cn2ncn3c(cc4ccccc43)c2=O)cc1	·	-20%
NC(=O)C1CCN(C(=O)c2ccc(Cl)c(S(=O)(=O)N3CCc4ccccc43)c2)CC1	-1%	-19%
O=C(Nc1ccnn1C1CCN(CCCc2ccccc2)CC1)c1ccccc1	i	-15%
O=C(N/N=C/c1ccccc1)c1cccc2ccccc12	-25%	-8%
Cc1nc2ccc(C(=O)N(C)Cc3ccccc3)cn2c1N(C)C(=O)CCc1ccccc1	-10%	-14%
CC(C)(C)OC(=O)N1CCC(NC(=O)c2nc[nH]c2C(=O)N2CCc3ccccc3C2)CC1	i	-6%
COc1cc(CCCN2C(N)=NC[C@@H]2Cc2ccccc2)cc(OC)c1OC	-10%	-6%
O=C(O)Cc1sc(N/N=C\c2ccccc2)nc1-c1ccccc1	-19%	8%

Other compounds.
SMILES	Vaccinia mCherry	Vaccinia Venus
O=C(NNc1nc(-c2ccccc2)cs1)c1cccs1	-30%	-16%
CC1=CC(C)C2C(=O)N(O)C(=O)C2C1 (stereo not drawn)	-14%	-11%
CCc1ccc(-n2nc(C)c3c(C)cc(=O)n(Cc4nc(-c5ccccc5)oc4C)c32)cc1	-3%	-3%
O=C(Nc1ccc2oc(-c3ccc4ccccc4c3)nc2c1)c1cccs1	·	-23%
CCOC(=O)CSc1nc2c(cnn2-c2ccc(C)cc2)c(=O)[nH]1	-2%	-15%
Cc1ccc(NC2=CC(c3ccccc3F)N(c3ccc(C)cc3)C2=O)cc1 (stereo not drawn)	-16%	-16%
S=C(Nc1ccccc1Cl)N1CCCCC1	i	-2%
O=C(c1ccccc1)N1CN2CN(C(=O)c3ccccc3)CC([N+](=O)[O-])(C2)C1	i	-7%
CSc1cccc(NC(=S)N(Cc2ccccc2)Cc2cccnc2)c1	-4%	-4%
O=C1CC2(CCCC2)C(=O)N1CN1CCN(S(=O)(=O)c2ccc(Cl)c(Cl)c2)CC1	-1%	-7%
CCC(C)(O)c1[nH]c2ccc(C(F)(F)F)cc2c1C (stereo not drawn)	i	?
CCOC(=O)C1(C)CCN1C(=O)c1ccc(OC)c(OC)c1 (stereo not drawn)	36%[activator]	-5%

Continued:
SMILES	Vaccinia mCherry	Vaccinia Venus
CC(=O)Nc1cccc(N=NN2CCCCC2)c1	-8%	-9%
Clc1cccc(-c2nc3nc4ccccc4nc3n2Cc2ccccc2)c1	-4%	-6%
Cc1cc(C)c(/C=C/c2onc(C)c2S(=O)(=O)N2CCC(C(=O)NCc3ccccc3Cl)CC2)c(C)c1	-5%[7.34 µM]	-5%[7.34 µM]
C=CCOc1c(Br)cc(CNc2ccc(NC(=O)CCC)cc2)cc1OCC	·	?
CCCCNC(=O)c1nc(C2CCN(S(=O)(=O)c3ccc(S(C)(=O)=O)cc3)CC2)oc1-c1ccccc1	-25%	-10%
Cc1ccc(NC(=O)CSc2nnc(-c3ccccc3)n2C)cc1	-11%	-14%
CC1(Oc2ccc(F)cc2)CCN(Cc2ccccc2OC(F)F)C1 (stereo not drawn)	-3%	2%
Cn1c(C(C(=O)NCC2CCCO2)N(CCc2ccccc2)C(=O)Cn2nnc3ccccc32)nc2ccccc21 (stereo not drawn)	i	-15%

From PubChem
